VDR inh: vitamin D3 receptor (human) inhibition; Potency, µM, for inactives: max response, negative = inhibition, most hits filed as inhibitors; VDR-SRC2-3 peptide fluorescence polarization, 2 h; 400,000 compounds, 0.93% hits; AID 504847; active = well fitted inhibition curve with a large enough effect; inconclusive = small, poorly fitted or top-dose-only effect, or another doubt; inactive = no such curve, though single readings can be large or run the other way; note: series mostly up to about 120 µM
Target sequence (P11473 whole entry, looked up): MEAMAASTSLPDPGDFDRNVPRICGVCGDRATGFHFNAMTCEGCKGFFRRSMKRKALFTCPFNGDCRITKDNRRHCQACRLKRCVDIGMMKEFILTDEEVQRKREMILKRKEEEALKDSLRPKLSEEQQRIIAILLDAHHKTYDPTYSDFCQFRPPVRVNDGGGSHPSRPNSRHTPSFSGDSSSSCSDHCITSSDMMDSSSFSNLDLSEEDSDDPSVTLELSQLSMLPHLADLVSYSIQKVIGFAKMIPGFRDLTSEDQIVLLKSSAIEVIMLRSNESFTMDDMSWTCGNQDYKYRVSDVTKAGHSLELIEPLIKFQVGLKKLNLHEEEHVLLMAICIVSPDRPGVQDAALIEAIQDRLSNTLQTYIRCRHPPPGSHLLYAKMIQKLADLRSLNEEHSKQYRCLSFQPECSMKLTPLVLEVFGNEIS
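Two reagent solutions held at 4 deg C in the dark were dispensed, compounds pinned at 23 nl, and the mixture incubated 2 h at room temperature. Read-out: fluorescence polarization of VDR–SRC2-3 peptide binding.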
* hit, by the source's call; ? = inconclusive; & = joins results of further samples. % is set by controls: 0 for no effect and ±100 for the full control effect; potency is the fitted concentration of half-maximal effect. Only part of the results is shown; rates above refer to the full screens.

VDR inh	SMILES
-8%	CCOC(=O)c1cc(NC(=O)c2ccccc2)c(=O)n2c1oc1ccccc12
?	N=C1CCC(=N)c2c1c(O)c1ccccc1c2O
-9%&9%	O=C(O)CCCC[C@@H]1CCSS1
-7%	c1ccc(-c2cn3cccnc3n2)cc1
-13%	Cc1nc2ccc(Nc3nc4cc(S(=O)(=O)N5CCOCC5)ccc4o3)cc2s1
-6%	O=C(CSc1nc2ccccc2c(=O)n1Cc1ccco1)c1ccc(F)cc1
-2%	CC(C)NC(=O)c1cccc2c1-c1ccccc1C2=O
-6%	COc1ccc2c(c1)-c1c(ssc1=S)C(C)(C)N2
-3%	Cc1ccc(S(=O)(=O)N(c2nc(NC(C)C)nc(NC(C)C)n2)n2cnnc2)cc1
12%	COc1ccc(/C=C(/NC(=O)/C=C/c2ccccc2)C(=O)O)cc1
0%	O=C(Nc1nc2n(n1)C(c1ccc(F)cc1)C=C(c1ccccc1)N2)c1ccco1 (centres undefined)
-2%	O=C(Nc1ccccc1C(F)(F)F)C1CC(=O)N(c2ccccc2F)C1 (centres undefined)
-5%	CCC(C(=O)Nc1ccccc1OC)n1c(C(=O)OC)cc2sc(Cl)cc21 (centres undefined)
0%	COc1cc(-c2nc3n(n2)C(c2ccncc2)C(C(N)=O)=C(C)N3)cc(OC)c1OC (centres undefined)
-21%	COC(=O)Nc1ccccc1C(=O)N1CCC(O)(c2ccc(Cl)cc2)CC1
-24%	CC1(c2ccccc2)NC(=O)N(CC(=O)Nc2ccc(N3CCOCC3)cc2N2CCOCC2)C1=O (centres undefined)
-23%	O=C(Cc1ccc2c(c1)CCCC2)Nc1ccccc1Cl
-24%	Cc1nc2c(C(=O)NCc3ccccc3Cl)c[nH]n2c(=O)c1Cc1cccc(Cl)c1
5%	O=C(c1ccc2ncsc2c1)N1CCN(c2nc3ccccc3s2)CC1
-10%	COc1ccc(OC(C)C(=O)N2CCN(c3ccccn3)CC2)cc1 (centres undefined)
6%	COc1ccc(Nc2oc(/C=C/c3ccc(OC)c(OC)c3)nc2C#N)cc1
-8%	COc1cc(/C=N/N(C)c2ccccc2)cc(Cl)c1O
2.8µM*	O=C(/C=C/c1cccc([N+](=O)[O-])c1)c1ccc([N+](=O)[O-])o1
-15%	O=C(CSc1nc2ccccc2c(=O)n1-c1ccc(OC(F)F)cc1)NC1CC1
-5%	COc1ccccc1S(=O)(=O)Cc1ccc(C(=O)NC2CC2)o1
-9%	Cc1cccc(Cn2c(=O)n(Cc3ccco3)c(=O)c3ccccc32)c1
-16%	CC(C)Oc1ccc(C(CC(=O)O)NC(=O)Cc2ccc(Cl)cc2)cc1 (centres undefined)
2%	O=C(Nc1cccc(F)c1)N1CCCC2(CCN(C(=O)c3ccco3)CC2)C1
-9%	CCOc1ccc(CCNC(=O)C(C)N2C(=O)CC(C)(C)Sc3ccccc32)cc1 (centres undefined)
11%	CC1Cc2ccccc2N1S(=O)(=O)c1cccc(C(=O)N2CCN(c3ncccn3)CC2)c1 (centres undefined)
5%	COc1ccc(C(=O)C2CC2c2ccc3c(c2)OCO3)cc1 (centres undefined)
-13%	Cc1c(C#N)c(O)n(CCO)c(=O)c1N=Nc1ccc(S(N)(=O)=O)cc1
12%	CCC(C(=O)OCC(=O)Nc1cc(OC)ccc1OC)c1ccccc1 (centres undefined)
12%	COc1cccc(C(=O)CC(C(=O)O)c2ccc(Cl)cc2)c1 (centres undefined)
1%	O=c1[nH]c2c(c(=O)[nH]1)CCCCCC2
11%	CCc1ccc(N/C(SCc2ccccc2C)=C(/C#N)C(=O)NCc2ccco2)cc1
-4%	Cc1ccc2ncc(NC(=O)c3ccc(F)cc3)c(=O)n2c1
-7%	C[n+]1ccc(/C=C/c2cccs2)cc1
-3%	Cc1[nH]nc2c1C(=O)CC(C)(C)C2
-4%	O=C(CN1C(=O)COc2ccccc2C1=O)c1ccc2c(c1)OCCO2
4%	CCOC(=O)CN1C(=O)N(CC)C(C)=C(C(=O)OC)[C@@H]1c1ccccc1
-11%	CCCCS(=O)(=O)NC1=NCN(Cc2ccco2)CN1
4%	COC(=O)C1(C(=O)OC)NOC2C(=O)N(c3ccc(Cl)cc3Cl)C(=O)C21 (centres undefined)
-15%	O=C(Cn1nc([N+](=O)[O-])nc1Br)NC1CCCCC1
11%	CCN(CC)CCOC(=O)c1ccc(NC(=O)CCNC(=O)Cn2ccc3ccccc3c2=O)cc1
-11%	CN(Cc1ccccc1)C(=O)C1CCCN(Cc2ccc(Cl)cc2)C1 (centres undefined)
-8%	CN(C)CCN(C(=O)c1ccc(C(=O)c2ccccc2)cc1)c1nc2cc3c(cc2s1)OCCO3
-16%	Cc1cccc(NC(=O)c2cn(-c3ccccc3)nc2-c2ccccc2)c1
-5%	O=C(NCCc1ccccn1)c1nc(Cn2cc(Br)cn2)no1
-16%	COC(=O)CC(c1ccc(C(C)C)cc1)n1cccc1 (centres undefined)
-12%	COC(=O)c1ccc(COc2ncnc3c(Cl)cc(Cl)cc23)o1
16%	Cc1cccc(NC(=O)CNC(=O)Cc2ccc(S(=O)(=O)N3CCOCC3)s2)c1C
-17%	Cc1ccc(NC(=O)CSc2nnc(N)s2)c(C)c1
-26%	COc1ccc(C(=O)NC(=S)Nc2ccc3oc(=O)ccc3c2)cc1OC
24%	Cc1cc(C)n(C(CC(=O)N2CCc3ccccc3C2)C(=O)O)n1 (centres undefined)
35µM*	O=C(CC1SC(=O)N(c2ccccc2)C1=O)Nc1ccc(Br)cc1 (centres undefined)
11%	COCCNS(=O)(=O)c1ccc(F)c(OC)c1
11%	COc1ccc(C2C=C(c3ccc(Br)cc3)Nc3nnnn32)c(OC)c1 (centres undefined)
9%	COc1ccccc1C(=O)N/C(=C\c1cn(C)c2ccccc12)C(=O)NCCCN1CCOCC1
7%	CC1CCCN(S(=O)(=O)c2ccc(S(=O)(=O)NC(C)c3cccs3)cc2)C1 (centres undefined)

(list continues)
VDR inh	SMILES
27%	CCOC(=O)c1c(C)c(C(=O)NCCN2CCOCC2)c(C)n1C
-6%	CCC1Nc2ncnc(N3CCCCC3)c2N(Cc2ccc(Br)cc2)C1=O (centres undefined)
10%	Cc1ccc(CN(Cc2ccco2)C(=O)c2oc3ccc(C)cc3c2C)cc1
9%	Cc1nc2nc[nH]n2c(=O)c1C/C=C/c1ccccc1
-16%	COC(=O)C1=C(C)Nc2c(c(=O)n(C)c(=O)n2C)C1c1ccc(Cl)cc1 (centres undefined)
-4%	Cc1ccc(/C=N/n2c(-c3ccc(Cl)cc3)n[nH]c2=S)o1
17%	Cc1ccc(N=Nc2c(N)[nH]n3c(=O)cc(-c4ccccc4)nc23)cc1
6%	CC(C)CC(NC(=O)C(CC(C)C)NC(=O)C(Cc1ccc(OCc2ccccc2)cc1)NC(=O)OC(C)(C)C)C(N)=O (centres undefined)
14%	CC(C)(C)OC(=O)N[C@@H](C(=O)OC(C)(C)C)c1ccccc1
2%	Cc1oc2ncnc(N3CCCCC3)c2c1C(=O)Nc1cccc(Cl)c1C
6%	Cc1cc(C)nc(NC(=O)c2ccc(OC(C)C)cc2)n1
11%	Cc1ccc(S(=O)(=O)CCC(=O)NCCC2=CCCCC2)cc1
3%	CCn1cc(C(=O)NCC(=O)NCCCN2CCOCC2)c(=O)c2cc3c(cc21)OCO3
-8%	COc1cccc(NC(=S)N2CCN(Cc3ccccc3)CC2)c1
0%	O=C(CCCNC(=O)c1ccc(Cl)cc1)NCc1ccccc1Cl
11%	Cc1nc2ncnn2c(C)c1CCC(=O)NC(C)CCc1ccco1 (centres undefined)
-4%	CCN(C(=O)c1oc2ccc(S(=O)(=O)N3CCCCCC3)cc2c1C)c1ccccc1
5%	CC(=O)Nc1ccc(NC(=O)c2c(C)nn(-c3ccccc3)c2-n2cccc2)cc1
-11%	Cc1ccc(-c2csc(NC(=O)COc3ccc(N(C)S(=O)(=O)c4ccc(C)cc4)cc3)n2)cc1
-3%	CC(=O)N1CCC(C(=O)Nc2nnc(C(C)C)s2)CC1
1%	CCN(CC(=O)Nc1ccc(NC(C)=O)cc1)C(=O)/C=C/c1ccc([N+](=O)[O-])cc1
-3%	O=C(Cc1cccc(NC(=O)C2CCN(C(=O)C3CC3)CC2)c1)Nc1cccc(C(=O)N2CCCC2)c1
-20%	COc1ccc(-c2nc(CSCC(=O)NCC3CCCO3)c(C)o2)cc1OC (centres undefined)
8%	Cc1cccc(N2CC(C(=O)Nc3nnc(SCC(=O)N4CCOCC4)s3)CC2=O)c1 (centres undefined)
-3%	COc1ccc(C2C(C(=O)Nc3cccc(C)n3)c3ccccc3C(=O)N2C)cc1 (centres undefined)
?	Cc1ccc(C(=O)C2=C(O)C(=O)N(Cc3cccnc3)C2c2cccc(Oc3ccccc3)c2)o1 (centres undefined)
-3%	CCOC(=O)C/C(C)=N/NC(=O)CNc1cccc(Cl)c1C
-2%	CCn1c(-c2cccn(Cc3ccc(Cl)cc3Cl)c2=O)n[nH]c1=S
-2%	CCn1cc(CN2CCC(n3nccc3NC(=O)CCOc3ccccc3)CC2)c(C)n1
?	O=C(CSc1nnnn1-c1ccc(F)cc1)NC1CCCCC1
9%	N#C/C(=C(/O)COC(=O)c1ccccc1O)c1nc2ccccc2s1
-8%	O=C(c1ccc(=O)[nH]n1)N1CCN(S(=O)(=O)c2ccccc2F)CC1
-20%	CCCN1CCN(CCCNC(=O)c2ccc(CS(=O)c3ccccc3C)o2)CC1 (centres undefined)
-7%	Cc1ccc(N(C(=O)c2ccc3c(c2)OCO3)C2C=CS(=O)(=O)C2)cc1C (centres undefined)
-2%	O=C(/C=C/c1ccccc1)Nn1cnnc1
9%	O=C(CCc1ccccc1)Nc1ccc(NC(=O)C2CCCCC2)nc1
-14%	CNc1nnc(SCC(=O)c2cc(C)n(C3CC3)c2C)s1
0%	O=C(O)CSc1nnc(-c2ccc(Cl)cc2Cl)n1-c1ccc(Cl)cc1
40µM*	O=C1OC(NC(=O)c2ccccc2)C(n2cc(CO)nn2)=C1Cl (centres undefined)
-7%	O=C(NCc1cccs1)c1ccc([N+](=O)[O-])cc1
-3%	O=C1c2ccccc2NC(c2ccccc2)N1CCCN1CCOCC1 (centres undefined)
0%	O=C(N1CCCCCC1)N1CCN(C(=O)N2CCOCC2)CC1
9%	O=C(CCNC(=O)C1CCN(S(=O)(=O)c2ccc(F)cc2)CC1)NCCc1cccc(F)c1
-11%	C=C1CCN(C(CC(C)C)C(=O)Nc2ccc(OC)cc2)S(=O)(=O)c2ccccc21 (centres undefined)
-13%	C=CCn1c(SCc2nc3ccccc3c(=O)[nH]2)nc2sc3c(c2c1=O)CCCC3
4%	CC1CC(C)CN(c2ccc([N+](=O)[O-])nc2)C1 (centres undefined)
-10%	COC(=O)c1ccc(COc2cc(C)ccc2C)o1
-6%	Cc1ccc(Cl)cc1N1CCN(C(=O)CN(C2CCCCC2)S(C)(=O)=O)CC1
6%	CCCn1c(SCC(=O)NCCc2ccccc2)nnc1-c1ccccn1
-6%	c1ccc2[nH]c(-c3ccc4c(c3)OCO4)nc2c1
-13%	CCC1(c2ccccc2)NC(=O)N(CC(=O)N(C)Cc2c(F)cccc2Cl)C1=O (centres undefined)
10%	COc1ccc(CNC(=O)c2ccc(-c3nc(CSc4ccccc4)c(C)o3)cc2)cc1OC
8%	C[C@H](NC(=O)c1ccccc1Cl)C(=O)OC(C(=O)Nc1cc(C(F)(F)F)ccc1Cl)c1ccccc1 (some centres undefined)
2%	Cc1ccc(CN2C(=O)c3ccccc3Sc3ccc(C(=O)NC4CCCCC4)cc32)cc1
2%	COc1cc(/C=C2\SC(=O)NC2=O)ccc1Oc1cnccn1
-15%	O=C(CCl)N(CCc1ccccc1)CCc1ccccc1
2%	Cc1c(Cl)cccc1NC(=O)c1ccc2c(c1)nnn2C1CCCC1
-6%	CC1CCCCC1NC(=O)C1CCN(C(=O)c2sccc2-n2cccc2)CC1 (centres undefined)
-16%	Cc1ccc(-c2csc(/C=C3\SC(C)C(=O)N3CC(=O)Nc3ccccc3F)n2)cc1 (centres undefined)
17%	O=C(Cn1ccc(C(F)(F)F)n1)N/N=C/c1ccc2c(c1)OCO2

Given with bars between the fields: 7 of the compounds above.
canonical_smiles | VDR inh
C[C@H](NC(=O)c1ccccc1Cl)C(=O)OC(C(=O)Nc1cc(C(F)(F)F)ccc1Cl)c1ccccc1 (some centres undefined) | 8%
CCC1(c2ccccc2)NC(=O)N(CC(=O)N(C)Cc2c(F)cccc2Cl)C1=O (centres undefined) | -13%
Cc1ccc(-c2csc(/C=C3\SC(C)C(=O)N3CC(=O)Nc3ccccc3F)n2)cc1 (centres undefined) | -16%
CC1CCCCC1NC(=O)C1CCN(C(=O)c2sccc2-n2cccc2)CC1 (centres undefined) | -6%
Cc1ccc(Cl)cc1N1CCN(C(=O)CN(C2CCCCC2)S(C)(=O)=O)CC1 | -6%
c1ccc2[nH]c(-c3ccc4c(c3)OCO4)nc2c1 | -6%
O=C(Cn1ccc(C(F)(F)F)n1)N/N=C/c1ccc2c(c1)OCO2 | 17%

Structures above that contain a cyano group, in the order listed:
VDR inh	SMILES
6%	COc1ccc(Nc2oc(/C=C/c3ccc(OC)c(OC)c3)nc2C#N)cc1
-13%	Cc1c(C#N)c(O)n(CCO)c(=O)c1N=Nc1ccc(S(N)(=O)=O)cc1
11%	CCc1ccc(N/C(SCc2ccccc2C)=C(/C#N)C(=O)NCc2ccco2)cc1
9%	N#C/C(=C(/O)COC(=O)c1ccccc1O)c1nc2ccccc2s1

Shown with each value named: part of the list above.
COc1ccc(CNC(=O)c2ccc(-c3nc(CSc4ccccc4)c(C)o3)cc2)cc1OC
  VDR inh: 10%

O=C(CCNC(=O)C1CCN(S(=O)(=O)c2ccc(F)cc2)CC1)NCCc1cccc(F)c1
  VDR inh: 9%

Going on with the list:
VDR inh	SMILES
12%	Cc1ccc(NC(=O)Cn2c(=O)c3cccn3c3ccccc32)cc1
-17%	CCCn1c(SCC(=O)NCCc2ccccc2)nnc1-c1cccnc1
9%	O=C(Nc1nccs1)c1ccc(Br)o1
-2%	C=CCn1cnc2scc(-c3ccccc3)c2c1=O
2%	CCOCCCNS(=O)(=O)c1ccc2c(c1)oc(=O)n2CC(=O)OCC
-4%	COc1ccccc1Cn1c(C(C)C)nc2ccccc21
?	CCN(C(=O)CSc1nc2cc(Cl)ccc2c(=O)n1CC(C)C)C1CCS(=O)(=O)C1 (centres undefined)

Assay outcomes as filed in PubChem BioAssay.
